# Screening data as filed in PubChem BioAssay.
# miR-21 FLuc – miR-21 reporter, rising signal; 340,000 tested, under 10 active; HeLa miR-21 FLuc reporter, luciferase, 48 h; Potency, µM (doses to about 38.3 µM), for inactives: at the highest dose reporter change, positive = more light; active = well fitted rising curve with a large enough effect; inconclusive = small, poorly fitted or top-dose-only effect; inactive = no such curve, though single readings can be large or run the other way;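 note: % of control where 0% means no effect; miR-21 action dims this reporter so a rising signal means less miR-21 action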
#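 Using DMEM plus 10% FBS, HeLa miR-21-FLuc cells are incubated with test compounds (final up to about 40uM) for 48 hours; firefly luciferase signal is then imaged following reagent-mediated lysis.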
# * = called active by the depositor; u = inconclusive.
SMILES,miR-21 FLuc
Cc1ccc(-c2nn(CC(=O)NC3CCCCC3)c3c2cnc2ccc(F)cc23)cc1C,-12.0%
CCc1ccccc1NC(=O)N1CCc2cc(OC)c(OC)cc2C1CC(=O)OC (stereo not given),-6.0%
O=C(CCS(=O)(=O)c1nc(-c2ccc3c(c2)OCO3)cc(C(F)(F)F)n1)Nc1ccc(F)cc1F,9.5%
Cc1ccc2onc(CC(=O)N3CCN(c4ccccc4)CC3)c2c1,7.4%
O=C(Nc1ccc(O)c(-c2nc3ccccc3o2)c1)c1ccc(-c2cccc(Cl)c2)o1,-3.3%
Cc1nc2cc(-c3cccc(F)c3)nn2c(C)c1CCC(=O)NC(C)c1ccccc1 (stereo not given),21.4%
CCOc1ccc(CNC(=O)c2cnc(SC)nc2C)cc1,8.6%
O=C(c1ccc(F)cc1)c1cn(Cc2ccccc2)c2cc3c(cc2c1=O)OCO3,5.0%
O=C(Nc1sc2c(c1C(=O)Nc1ccccc1Cl)CCCC2)c1ccccc1F,-12.6%
COc1ccc(S(=O)(=O)N(CC(=O)N2CCC(C)CC2)c2ccc(C)cc2)cc1,3.2%
COc1ccc(NC(=O)c2c(NCc3cccs3)sc3c2CCCC3)cc1,-7.6%
CC(=O)c1ccc(NC(=O)C2CCC(CNS(=O)(=O)c3ccc4c(c3)CCCC(=O)N4)CC2)cc1 (stereo not given),7.1%
CCc1ccc(C2C(C(=O)Nc3ccccc3OC)=C(C)Nc3nc(SCc4ccccc4)nn32)cc1 (stereo not given),-0.4%
CCc1ccc2oc(C(=O)NCC(c3ccc(Cl)cc3)N3CCOCC3)c(C)c2c1 (stereo not given),0.0%
CC1CCCCN1S(=O)(=O)c1ccc(C(=O)Nc2sc3c(c2C(N)=O)CC(C)(C)NC3(C)C)cc1 (stereo not given),-7.5%
CC1=C(C(=O)OC2CCCCCC2)C(c2ccc(Cl)cc2)CC(=O)N1 (stereo not given),8.3%
O=C(c1ccccc1Cl)N(Cc1ccco1)Cc1ccco1,22.3%
Cc1cccc(N2CCN(C(=O)c3ccc(Nc4nc5ccccc5n5nnnc45)cc3)CC2)c1C,-7.7%
O=C(Cc1ccc(F)cc1)NC1CC(=O)N(c2ccc3c(c2)OCCO3)C1 (stereo not given),-5.8%
CCOc1ccccc1NC(=O)CN(c1cc(C)cc(C)c1)S(=O)(=O)c1c(C)nn(C)c1C,15.2%
CC(=O)c1cc(-c2ccc(F)cc2)n(CC(=O)Nc2cc(C)cc(C)c2)c1C,0.2%
NC(=O)Cn1c(=O)n(CCCCCC(=O)NCc2ccccc2Cl)c(=O)c2sccc21,-10.7%
Cc1ccc(NC(=O)C2CCN(c3nnc(-n4cccc4)s3)CC2)cc1Cl,-3.9%
COc1ccc(N2CC(NC(=O)c3ccc(S(=O)(=O)N4CCOCC4)cc3)CC2=O)cc1OC (stereo not given),-1.5%
Cc1cc(C)c(-c2n[nH]c3c2C(c2ccccc2F)N(CCO)C3=O)c(O)c1 (stereo not given),u
CCCCOc1ccc(CNC(=O)Cc2ccc(NC(=O)N3CCCCc4ccccc43)cc2)cc1,28.6%
CCN(CC)S(=O)(=O)c1ccc2c(c1)nc(CN(C)C(=O)Nc1ccc(C)c(Cl)c1)n2C,1.7%
COc1cc(C2C(C(=O)Nc3ccccc3)=C(C)Nc3nc(SCC(=O)c4ccc(C)cc4)nn32)ccc1O (stereo not given),-2.5%
CCOc1ccc2nc(N3CCCC(C(=O)Nc4c(C)cccc4C)C3)sc2c1 (stereo not given),-4.5%
CCc1ccc2nc(N3CCN(C(=O)c4ccccc4)CC3)sc2c1,12.8%
O=C(Cn1c(=O)oc2cc(S(=O)(=O)N3CCCCCC3)ccc21)NCc1ccccc1Cl,17.9%
O=C(Nc1ccc(F)c(Cl)c1)C1Cc2ccccc2CN1S(=O)(=O)c1ccc(F)cc1 (stereo not given),-11.5%
CCc1ccc2oc(C(=O)NCCc3ccc(OC)c(OC)c3)cc(=O)c2c1,u
CCc1ccccc1NC(=O)c1cnc(N2CCCCC2)c2ccccc12,4.1%
CC(NC(=O)c1ccc2c(c1)N(Cc1ccc(Cl)cc1)C(=O)CS2)c1ccccc1 (stereo not given),5.3%
COC(=O)Cc1c(C)c2ccc3c(c2oc1=O)CN(Cc1ccccc1OC)CO3,-5.3%
Cc1ccc(NC(=O)c2oc3ccccc3c2NC(=O)Cc2ccccc2)cc1,-1.5%
COc1cccc(N2CCN(C(=O)CN3C(=O)COc4ccc(S(=O)(=O)N5CCC(C)CC5)cc43)CC2)c1,-4.1%
Cc1ccc(S(=O)(=O)c2nc(-c3ccco3)oc2SCC(=O)Nc2ccc(F)cc2)cc1,-0.6%
Cc1cc2oc3c(c(=O)c2cc1C)C(c1ccc(C(C)C)cc1)N(c1nc(C)c(C)s1)C3=O (stereo not given),-1.5%
CC(=O)C1=C(c2ccc(C)c(C)c2)N(C(C)=O)n2c(nnc2-c2ccc(Cl)cc2)S1,2.4%
O=C(O)c1ccc(CNCc2ccc(Cl)cc2)s1,-0.9%
Fc1cccc(-n2ncc3c2ncn2nc(Cc4ccccc4)nc32)c1,-5.4%
Cc1csc2nc(COC(=O)c3ccc(F)cc3)cc(=O)n12,-54.2%
COc1ccc(Nc2nc(N)c3cc(OC)c(OC)cc3n2)cc1,-14.7%
COC(=O)c1ccccc1NC(=O)CSc1c2c(nc3ccc(Cl)cc13)CCCC2,-7.2%
COc1cccc(N2CC(NC(=O)/C=C\c3ccc4c(c3)OCO4)CC2=O)c1 (stereo not given),9.8%
CCCCS(=O)(=O)c1nc(-c2ccc(Br)cc2)cc(-c2ccccc2)c1C#N,u
COc1ccc(CCNC(=O)CCCn2c(=O)c3ccccc3n(Cc3ccccc3C#N)c2=O)cc1OC,-2.9%
Cc1cccc(NC(=O)c2ccc(CNS(=O)(=O)c3ccc4c(c3)C(C)(C)C(=O)N4C)cc2)c1,u
CC(C)CC(C(=O)NCc1ccc(F)cc1)N1Cc2ccccc2C1=O (stereo not given),-0.1%
COc1ccc(-c2noc(-c3ccc(C)cc3Cl)n2)cc1OC,-28.6%
Cc1ccc(-n2nc(CO)c(C(=O)NCCCc3ccccc3)n2)cc1C,-9.0%
Cc1ccc(CNC(=O)CCCN2C(=O)CCn3nc(-c4cccn4C)cc32)cc1,-2.4%
CC(=O)N1CCc2cc(S(=O)(=O)NC(Cc3ccccc3)C(=O)Nc3ccc(C)cc3C)ccc21 (stereo not given),-8.0%
COc1cc(OC)c(NC(=O)N2CCc3c([nH]c4ccccc34)C2c2ccccc2F)cc1Cl (stereo not given),-1.1%
COc1ccc(NC(=O)c2cc(C3CC3)nc3c2c(C)nn3-c2ccccc2)cc1OC,-2.2%
CCCn1c(=O)sc2cc(NC(=O)c3ccccc3Cl)ccc21,-14.8%
CCCCOc1cccc(C2c3c(-c4cc(C)ccc4O)n[nH]c3C(=O)N2CCOC)c1 (stereo not given),18.8%
COc1ccc(-c2nc3scc(CCNS(=O)(=O)c4ccc(Oc5ccccc5)cc4)n3n2)cc1OC,4.5%

# 14 entries from above, arranged by molar mass, lowest first:
SMILES,miR-21 FLuc
Cc1csc2nc(COC(=O)c3ccc(F)cc3)cc(=O)n12,-54.2%
COc1ccc(Nc2nc(N)c3cc(OC)c(OC)cc3n2)cc1,-14.7%
COc1ccc(-c2noc(-c3ccc(C)cc3Cl)n2)cc1OC,-28.6%
CCCn1c(=O)sc2cc(NC(=O)c3ccccc3Cl)ccc21,-14.8%
CC(C)CC(C(=O)NCc1ccc(F)cc1)N1Cc2ccccc2C1=O (stereo not given),-0.1%
COc1cccc(N2CC(NC(=O)/C=C\c3ccc4c(c3)OCO4)CC2=O)c1 (stereo not given),9.8%
COc1ccc(NC(=O)c2cc(C3CC3)nc3c2c(C)nn3-c2ccccc2)cc1OC,-2.2%
CCCCOc1cccc(C2c3c(-c4cc(C)ccc4O)n[nH]c3C(=O)N2CCOC)c1 (stereo not given),18.8%
COC(=O)c1ccccc1NC(=O)CSc1c2c(nc3ccc(Cl)cc13)CCCC2,-7.2%
CCCCS(=O)(=O)c1nc(-c2ccc(Br)cc2)cc(-c2ccccc2)c1C#N,u
COc1cc(OC)c(NC(=O)N2CCc3c([nH]c4ccccc34)C2c2ccccc2F)cc1Cl (stereo not given),-1.1%
CC(=O)N1CCc2cc(S(=O)(=O)NC(Cc3ccccc3)C(=O)Nc3ccc(C)cc3C)ccc21 (stereo not given),-8.0%
COc1ccc(CCNC(=O)CCCn2c(=O)c3ccccc3n(Cc3ccccc3C#N)c2=O)cc1OC,-2.9%
COc1ccc(-c2nc3scc(CCNS(=O)(=O)c4ccc(Oc5ccccc5)cc4)n3n2)cc1OC,4.5%

# The results go on.
SMILES,miR-21 FLuc
CCOc1ccc(-c2cn3c(n2)sc2cc(C(=O)NCCc4ccc(OC)cc4OC)ccc23)cc1,-4.1%
Cc1ccccc1Nc1c(-c2ccc(N3CCOCC3)cc2)nc2cccc(C)n12,-37.0%
CCOc1ccc2nc(NC(=O)c3cc(=O)c4ccc(C)cc4o3)sc2c1,0.8%
COc1cccc(NC(=O)Cn2c(=O)oc3cc(S(=O)(=O)N4CCCCC4)ccc32)c1,21.3%
O=C(NCCc1ccccc1)c1sc2ncccc2c1-n1cccc1,-18.5%
CCC(=O)N1c2ccccc2CC1C(=O)NCCc1cc(OC)c(OC)c(OC)c1 (stereo not given),-1.1%
COc1cccc(CNC(=O)C2CCN(S(=O)(=O)c3c(C)noc3/C=C/c3cccs3)CC2)c1,-13.9%
CCN(CC)CCNC(=O)Cn1ncc2c3ccccc3n(Cc3ccc(Cl)cc3)c2c1=O,-1.0%
CCc1nn2c(=O)cc(COC(=O)CNC(=O)COc3ccc(C)cc3)nc2s1,-3.9%
N#Cc1nc(-c2ccc(COc3ccc(Cl)cc3)o2)oc1N1CCCCC1,-3.5%
CC(=O)Nc1ccc(S(=O)(=O)NC2(C(F)(F)F)C(=O)Nc3c2c(=O)[nH]c(=O)n3-c2cccc(Cl)c2)cc1 (stereo not given),2.7%
CCc1nnc(SCC(=O)Nc2cccc(C(F)(F)F)c2)c2cc3oc(C)cc3n12,-9.7%
Cc1cccc(OCCn2c(SCC(=O)O)nc3ccccc32)c1,-10.1%
O=C1C(c2ccc(F)cc2)N(CCc2ccc(Cl)cc2)C(=O)CN1C1CCCCC1 (stereo not given),1.8%
Cc1nnc(SCc2cc(=O)c3cc(F)ccc3[nH]2)n1C,0.9%
Cc1ccc(NC(=O)C2(C)Cc3ccccc3C(=O)O2)c(C)c1 (stereo not given),-10.9%
COc1cccc(C(=O)CC2(O)C(=O)Nc3ccc(Cl)cc32)c1 (stereo not given),18.2%
CN(C)S(=O)(=O)c1ccc2c(c1)N(CC(=O)Nc1cccc(C(F)(F)F)c1)C(=O)CS2,-9.3%
Cn1c(=O)cc(SCC(=O)NCc2ccc(F)cc2)c2ccc(Cl)cc21,2.5%
O=C(NC1CC(=O)N(c2cccc(F)c2)C1)c1ccc(S(=O)(=O)N2CCCC2)cc1 (stereo not given),2.7%
O=C1CCc2cc(S(=O)(=O)NC(C(=O)Nc3ccc(F)cc3)c3ccccc3)ccc2N1 (stereo not given),-0.9%
COc1ccc(NC(=O)c2ccco2)cc1NC(=O)c1cccc(C)c1OC,-1.9%
COc1ccc(N2CCN(C(CNC(=O)C(=O)NCCCN(C)C)c3cccnc3)CC2)cc1 (stereo not given),-7.3%
Cc1ccc(NC(=O)CCC(=O)N2Cc3ccccc3Oc3ncccc32)cc1Cl,23.0%
Cn1c(=O)c2c(-c3ccc(Br)cc3)n(CCc3ccccc3)cc2n(C)c1=O,24.0%
CC(=O)Nc1nonc1-c1nnc(SCc2ccc(F)cc2)n1C,-18.0%
Cc1cccc2nc(Cn3c(=O)n(-c4ccc(Cl)cc4)c(=O)c4c5c(sc43)CCC5)cc(=O)n12,-2.6%
CCOC(=O)c1c(-c2ccccc2)oc2ccc(NS(=O)(=O)c3ccc(C)cc3)cc12,u
Cc1oc2c(c1C(=O)Nc1ccc(Cl)cc1F)C1=NCCN1C=N2,-1.5%
COc1ccc(-c2cn3nc(N4CCCC(C(=O)NCc5ccccc5Cl)C4)sc3n2)cc1 (stereo not given),-9.8%
COCCNC(=O)CSc1cn(CC(=O)N2CCCCCC2)c2ccccc12,-1.6%
COc1ccc(C(=O)Nc2ccc3nc(SCC(=O)N4CCOCC4)sc3c2)cc1,-43.0%
Cc1cc2c(cc3c(SCc4ccc(Cl)cc4)nnc(C)n32)o1,-15.3%
O=C(NCc1cccc(Cl)c1)c1ccc(NC(=O)N2CC3CCCN3c3ccccc32)cc1 (stereo not given),-2.9%
COc1cc(OC)cc(C(=O)Nc2ccc3oc(-c4ccccc4C)nc3c2)c1,-6.6%
COc1ccccc1CCNC(=O)Cc1c(C)c2cc3c(C)coc3cc2oc1=O,7.6%
COc1ccccc1CNC(=O)Cc1csc2nc(-c3ccccc3)cn12,-2.9%
CCOC(=O)N1CCc2c(sc3c2c(=O)n(-c2ccc(Cl)cc2)c(=O)n3Cc2cccc(OC)c2)C1,0.2%
COc1ccccc1N1CCN(C(=O)c2c(C)oc3ncn(CC(C)C)c(=O)c23)CC1,-0.9%
CCC(Sc1nc2cc(OC)c(OC)cc2c2nc(-c3ccccc3)nn12)C(=O)Nc1cccc(C)c1 (stereo not given),-3.7%
CCOCCCNC(=O)C(c1ccc(C)cc1)N(Cc1cccs1)C(=O)c1ccc(NC(C)=O)cc1 (stereo not given),u
CCOc1ccc(C(=O)NCC(c2ccco2)S(=O)(=O)c2ccc(C)cc2)cc1 (stereo not given),-12.6%
O=C(COc1ccc(F)cc1)OCc1cc(=O)n2nc(-c3cccs3)sc2n1,4.9%
Cc1oc2ncn(CC(C)C)c(=O)c2c1C(=O)NCCc1ccc(Cl)cc1,7.1%

# A portion of the library. The share of hits here may be higher or lower than overall.
